VDR inh: Inhibitors of the vitamin D receptor (VDR): qHTS; VDR-SRC2-3 peptide fluorescence polarization, 2 h; Potency, µM, for the others: max response, negative = inhibition, hits mostly inhibitors; 400,000 compounds, 0.93% hits; AID 504847, 2011; active = well fitted inhibition curve with a large enough effect; inconclusive = small, poorly fitted or top-dose-only effect, or another doubt; inactive = no such curve, though single readings can be large or run the other way; also: series mostly up to about 120 µM
Target sequence (P11473 whole entry, looked up): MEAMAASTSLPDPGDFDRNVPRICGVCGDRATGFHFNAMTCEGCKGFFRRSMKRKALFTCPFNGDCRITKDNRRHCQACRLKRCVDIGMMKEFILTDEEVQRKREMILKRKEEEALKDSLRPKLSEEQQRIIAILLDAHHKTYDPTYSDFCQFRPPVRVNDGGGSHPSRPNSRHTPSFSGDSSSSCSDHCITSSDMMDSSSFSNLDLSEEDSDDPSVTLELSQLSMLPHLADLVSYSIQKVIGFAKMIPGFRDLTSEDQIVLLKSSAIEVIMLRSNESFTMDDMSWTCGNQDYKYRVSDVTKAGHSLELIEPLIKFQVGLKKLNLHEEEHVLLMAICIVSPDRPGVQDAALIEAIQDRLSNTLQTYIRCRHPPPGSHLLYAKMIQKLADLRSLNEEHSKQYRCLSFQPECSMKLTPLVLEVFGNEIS
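FP read-out; VDR + SRC2-3 coactivator peptide; 23 nl compound by pintool; 2 h RT incubation; reagents held at 4 deg C, protected from light.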
* hit, by the source's call; ? = inconclusive; & = joins results of further samples; [ ] = remark or other dose. % is scaled to controls: 0 for no effect and ±100 for the full control effect; potency is read from the fitted curve at half-maximal effect. This is a subset. The share of hits here may be higher or lower than overall.

SMILES | VDR inh
COc1ccc(N2CCN(C3CCCN(Cc4ccc(F)c(F)c4)C3)CC2)cc1 (configuration not stated) | 1%
COc1cccc(NC(=O)C2CCCN(S(=O)(=O)c3ccc4[nH]c(=O)ccc4c3)C2)c1 (configuration not stated) | 2%
CN(C)S(=O)(=O)c1ccc(C(=O)OCC(=O)c2ccc(OC(F)F)cc2OC(F)F)cc1 | 2%
COCCn1c(C)cc(C(=O)COC(=O)/C=C/c2cccc(OC)c2)c1C | 0%
CCOC(=O)N1CCC(=NNC(N)=O)CC1 | 12%
Cc1ccc2cc(CN(CC(C)C)C(=O)C3CCCO3)c(=O)[nH]c2c1 (configuration not stated) | 3%
Cn1nc(-c2ccc(Cl)cc2)c2cc(C(=O)NCCCN3CCOCC3)sc21 | 3%
O=C(CCc1nnc2n(Cc3ccc(Cl)cc3)c(=O)c3ccccc3n12)NCCCN1CCOCC1 | -2%
Cc1onc(-c2ccccc2)c1C(=O)N(Cc1ccco1)Cc1cccs1 | -6%
CC(C)(C)c1cc(CCC(=O)NCCc2ccccn2)cc(C(C)(C)C)c1O | -19%
Cc1ccc(C(=O)Nc2cc(Cl)ccc2-n2cncn2)o1 | 18%
Cc1nn(CC(=O)Nc2ccccc2)c(=O)c2ccccc12 | 4%
CCOC(=O)C1CCN(c2ncnc3c2cnn3C)CC1 | 0%
CSc1nnc(NC(=O)c2ccc(S(=O)(=O)N3CCOCC3)cc2)s1 | -12%
CN1CCN(C(=S)NC(=O)c2ccc(Br)cc2)CC1 | 13%
COc1ccccc1NC(=O)/C(=C/c1ccncc1)NC(=O)c1ccccc1 | -19%
Cc1cc(Cl)ccc1N(CC(=O)N=Nc1c(O)[nH]c2ccccc12)S(C)(=O)=O | 9%
CNC(=O)NC(=O)CSc1ccc(NC(C)=O)cc1 | -4%
[O-][N+]12CC[N+]([O-])(CC1)c1ccccc12 | 14%
O=C(Nc1ccc(Cl)cc1)c1cnn2c1NC(c1ccccc1)=CC2c1ccccc1 (configuration not stated) | 15%
CCN1CCCC1CNC(=O)c1ccccc1Cl (configuration not stated) | 21%
Cc1cc(C)c2cc3c(ccn3C3OC[C@H](O)[C@H](O)[C@H]3O)cc2n1 (some centres not stated) | -9%
COc1ccc2oc(-c3ccco3)cc(=O)c2c1 | -15%
COc1ccc(C(CNC(=O)C(CCSC)NC(=O)c2ccccc2Cl)N2CCOCC2)cc1 (configuration not stated) | 3%
CC(=O)NS(=O)(=O)c1cccnc1Nc1cccc(Cl)c1C | -15%
COc1ccc(CNC(=O)CN2CCN(c3ccc(F)cc3)CC2)cc1 | -6%
Cn1nc(CC#N)c2c(=N)n(N)cnc21 | -6%
O=C(CSc1nnc(C2CC2)n1-c1ccccc1)Nc1ccc(N2CCOCC2)cc1 | 12%
COC(=O)c1ccc(/C=N/NC(=O)CC(=O)NCC(C)C)cc1 | 15%
Nc1ccc(O)cc1C(=O)OCC(=O)C12CC3CC(CC(C3)C1)C2 | 6%
CCCOc1ccc(C(=O)Nc2cc(-c3nc4ccccc4[nH]3)ccc2C)cc1 | 3%
CN(CCc1ccccc1)C1CCCN(S(=O)(=O)c2cccc(F)c2)C1 (configuration not stated) | 13%
c1nnc(NC2=NCCCCC2)s1 | -10%
O=C(O)CCc1nn2c3ccccc3n(Cc3ccccc3)c2nc1=O | 16%
CCN(C(=O)CN1CCCC(C)C1)c1c(N)n(Cc2ccccc2)c(=O)[nH]c1=O (configuration not stated) | 4%
COc1cccc(CNc2ccc3c(c2)CCC3)c1 | -17%
O=C(NCCc1ccccc1)C1CC(=O)N(C2CCCC2)C1 (configuration not stated) | -17%
CCC(=O)Nc1nc(N)n(-c2ccccc2)n1 | -6%
COc1ccccc1N=Nc1[nH]c2ccc(C)cc2c1O | 2%
O=S(=O)(Cc1ccccc1)N1CCCc2ccccc21 | -18%
O=C(COc1ccc(Cl)cc1)Nc1ccc(C(=O)OCc2cc(=O)n3ccsc3n2)cc1 | 7%
COc1ccc(C(=O)NNC(=O)c2cnccn2)cc1[N+](=O)[O-] | 18%
COc1ccc(N(CC(=O)Nc2ccc(F)c(F)c2)S(=O)(=O)c2c(C)[nH]c(=O)[nH]c2=O)cc1 | -1%
CN(CC(=O)Nc1ccccc1C(F)(F)F)C(=O)CSc1nnc(N)s1 | 14%
COc1cc(C2NC(=O)NC(C)=C2C(=O)OC(C)(C)C)ccc1OCC(N)=O (configuration not stated) | 2%

4 records picked at random from those above, as already listed:
SMILES | VDR inh
COc1ccccc1N=Nc1[nH]c2ccc(C)cc2c1O | 2%
O=C(NCCc1ccccc1)C1CC(=O)N(C2CCCC2)C1 (configuration not stated) | -17%
CCC(=O)Nc1nc(N)n(-c2ccccc2)n1 | -6%
COc1ccc(C(=O)NNC(=O)c2cnccn2)cc1[N+](=O)[O-] | 18%

Next results.
SMILES | VDR inh
COc1ccc(/C=C/C(=O)c2cc(Cl)cc(Cl)c2O)c(OC)c1 | 19%
CSCCC(NS(=O)(=O)c1cccs1)C(=O)Nc1ccc(C)c(Cl)c1 (configuration not stated) | -1%
N=NC(=O)c1ccccc1Nc1c(O)[nH]c2ccccc12 | -2%
COC(=O)c1cccnc1-n1c(=O)c2cccnc2n(CC(=O)Nc2ccc(C)cc2C)c1=O | -21%
COc1ccc(/C=N/Nc2nc(NCc3ccco3)nc(Nc3ccc(OC)cc3)n2)cc1 | 11%
CC(C)c1ccc(NC(=O)CCS(=O)(=O)c2ccc3c(c2)CC(=O)N3C)cc1 | 9%
CCOc1ccc(C2C(C#N)=C(N)Oc3cc(C)n(Cc4ccco4)c(=O)c32)cc1OC (configuration not stated) | -11%
O=C(/C=C/c1cccc([N+](=O)[O-])c1)n1cnc2ccccc21 | ?
O=C(C1CCN(Cc2ccc(Cl)cc2)CC1)N1CCN(Cc2ccc3c(c2)OCO3)CC1 | 10%
COc1ccc(NC(=O)c2ccccc2NC(=O)C2CCCCC2C(=O)O)cc1 (configuration not stated) | 10%
C#CCCCCCCCCCCCC(=O)CC(O)COC(C)=O (configuration not stated) | 0%
CC(C)(C)NC(=O)c1ccc2c(c1)C(=O)N(Cc1ccco1)C2=O | -17%
O=C(O)CCC(=O)Nc1sc2c(c1C(=O)NC1CCCC1)CCCC2 | -11%
CCOc1ccc(-c2cc(N3C(=O)Nc4ccccc4N3O)on2)cc1 | -8%
COC(=O)CCCCCNc1ccc(C(=O)OC)cc1N | 1%

Overlap with the part before: three entries, then new ones.
SMILES | VDR inh
O=C(O)CCC(=O)Nc1sc2c(c1C(=O)NC1CCCC1)CCCC2 | -11%
CCOc1ccc(-c2cc(N3C(=O)Nc4ccccc4N3O)on2)cc1 | -8%
COC(=O)CCCCCNc1ccc(C(=O)OC)cc1N | 1%
O=C(Oc1ccc(N(C(=O)c2ccncc2)S(=O)(=O)c2cccs2)cc1)c1ccncc1 | -19%
COc1cc(-c2cc(C(=O)Nc3ccc(C)c(S(=O)(=O)N4CCOCC4)c3)c3ccccc3n2)cc(OC)c1OC | 15%
CC1CCc2sc(C(=O)OCC(=O)NC(C)C)cc2C1 (configuration not stated) | 14%
COCCCNCCOc1cc(C(C)C)ccc1C | -7%
Cc1cc(NC(=O)Nc2cccc(Cl)c2)n(-c2ccccn2)n1 | 10%
COc1cccc(Nc2cc(C)nc3ccccc23)c1 | -4%
CCOC(=O)c1c(CSc2ccc(CC)cc2)oc2ccc(O)c(CN(C)C)c12 | -9%
COc1ccc(Cl)cc1NC(=O)C(OC)c1ccccc1 (configuration not stated) | -15%
CC(=O)Oc1ccc(-c2ccc(C(=O)O)cc2)cc1 | 6%
Cc1ccc(Cl)cc1N1CCN(C(=O)c2cc3c(=O)n(C)c4ccccc4c3n2C)CC1 | 8%
COc1ccccc1Cc1nc2ccccc2nc1SCC(=O)N1CCCCC1 | 7%
O=C(NCCN1CCOCC1)c1ccc([N+](=O)[O-])cc1[N+](=O)[O-] | -5%
O=C(O)c1cccc2c1C(=O)c1ccc(N3CCCC3)cc1S2(=O)=O | -5%
CCOC(=O)C1CCN(C(=O)C2CCN(S(=O)(=O)c3cccc4nsnc34)CC2)CC1 | 7%
COc1ccc(NC(=O)Cn2ncc3c4ccccc4n(Cc4ccccc4)c3c2=O)cc1OC | 11%

Seven compounds already listed, sorted by molar mass, high to low:
SMILES | VDR inh
COc1ccc(NC(=O)Cn2ncc3c4ccccc4n(Cc4ccccc4)c3c2=O)cc1OC | 11%
O=C(Oc1ccc(N(C(=O)c2ccncc2)S(=O)(=O)c2cccs2)cc1)c1ccncc1 | -19%
CCOC(=O)c1c(CSc2ccc(CC)cc2)oc2ccc(O)c(CN(C)C)c12 | -9%
O=C(O)c1cccc2c1C(=O)c1ccc(N3CCCC3)cc1S2(=O)=O | -5%
O=C(NCCN1CCOCC1)c1ccc([N+](=O)[O-])cc1[N+](=O)[O-] | -5%
COCCCNCCOc1cc(C(C)C)ccc1C | -7%
CC(=O)Oc1ccc(-c2ccc(C(=O)O)cc2)cc1 | 6%

Further structures follow:
SMILES | VDR inh
Cc1nn(C)cc1CN(C)C(=O)c1cc2nc(-c3ccco3)cc(C(F)(F)F)n2n1 | -12%
CCCN1C(=O)/C(=C\C=C2/Sc3ccccc3N2CCO)SC1=S | 158%[activator]
O=C(C1CC1)N(Cc1nc2ccccc2c(=O)[nH]1)Cc1cccs1 | ?
Cc1noc(C)c1C(=O)N1CCN(c2ccccc2O)CC1 | -8%
CCN(C(=O)COC(=O)CCCOc1ccc(Cl)cc1C)c1c(N)n(Cc2ccccc2)c(=O)[nH]c1=O | -15%
CCCn1c2ccccc2c2cnn(CC(=O)NCCCN3CCCCC3CC)c(=O)c21 (configuration not stated) | -11%&6%
COc1cc([C@@H]2Nc3c(F)cccc3[C@@H]3C=CC[C@@H]32)cc(Br)c1OC | -7%
Cc1ccc(-n2nnnc2SCn2nnc3ccccc3c2=O)c(C)c1 | 6%
CC1CCN(S(=O)(=O)c2ccc3c(c2)N(CC(=O)NCCCN2CCCCC2C)C(=O)CS3)CC1 (configuration not stated) | 11%&12%
O=C(CN(c1ccccc1)S(=O)(=O)c1ccc(F)cc1)NC1CCS(=O)(=O)C1 (configuration not stated) | -3%
CC(=O)c1sc(-c2ccc(F)cc2)cc1NS(=O)(=O)c1ccc(C)cc1 | -10%
Cc1ccc(Nc2nc(CSc3nnc(-c4ccc(F)cc4)n3C)cs2)cc1 | -8%
COc1cccc(NC(=O)c2cnc(SCC(=O)NCc3ccc4c(c3)OCO4)n(C)c2=O)c1 | 19%
COc1ccccc1NC(=O)C(=O)N(c1cccnc1)C(C(=O)NC(C)(C)C)c1ccccc1F (configuration not stated) | 6%
Cc1nnc(N/N=C/c2c[nH]c3ccccc23)[nH]c1=O | 13%
Cc1cccc(S(=O)(=O)N2CN(CC3CCCO3)c3nc4ccccc4nc32)c1 (configuration not stated) | -9%
O=C(c1ccncc1)c1nccn1-c1ccccn1 | -3%
CCc1nn(CCCC(=O)N(C)Cc2ccccc2)c(=O)c2cc3occc3n12 | -1%
COC(=O)[C@H](CC(C)C)NC(=O)NCCC1=CCCCC1 | 16%
Cc1c(C(=O)c2ccccc2)c2ccccn2c1CCc1ccccn1 | 43%[activator]
COc1ccc(CNC(=O)CCc2nnc3n(CC(C)C)c(=O)c4ccccc4n23)cc1 | -15%
CCOc1ccc(C(=O)c2cn(CC(=O)Nc3ccc(Cl)cc3)c3cc4c(cc3c2=O)OCCO4)cc1 | -8%
CCc1ccc(NC(=O)C2CCN(S(=O)(=O)c3ccc4c(c3)NC(=O)C(C)S4)CC2)cc1 (configuration not stated) | -4%
CCOc1ccccc1NC(=O)c1ccccc1N(C)S(=O)(=O)c1ccc(C)cc1 | 4%
COc1cc2c(C(=O)N3CCN(c4cccc(Cl)c4)CC3)cn(C)c(=O)c2cc1OC | -4%&18%
CCOC(=O)C1(Cc2cccc(Cl)c2)CCCN(C(=O)c2cc(C)on2)C1 (configuration not stated) | -16%
Cc1ccc2c(c1)C(C)CC(C)(C)N2C(=O)CN1CCN(C)CC1 (configuration not stated) | -6%
CCO[C@@H]1OC(C(=O)N2CCN(Cc3ccccc3)CC2)=C[C@H](c2coc3ccccc3c2=O)[C@H]1CCCO | -14%
COc1ccc(/C=N/NS(=O)(=O)c2ccccc2)cc1OC | -11%
COc1ccc(CCNC(=O)c2c(C)noc2C)cc1 | -4%
COc1ccc(-c2c(C#Cc3ccsc3)c3cc(-c4ccc(C(N)=O)cc4)ccc3n2C)cc1 | 2%
Cc1ccc2[nH]c(=O)c(CN(C(=O)c3cccc(Cl)c3)C(C)(C)C)cc2c1 | 22%
COc1ccc2[nH]c(=O)c(CN(C(=O)c3cccnc3)c3ccc(C)cc3C)cc2c1 | 9%
CCOc1cccc(C2c3[nH]c4ccccc4c3CCN2C(=O)CSc2ccccc2)c1 (configuration not stated) | 10%
CC(OC(=O)CNC(=O)c1ccccc1)C(=O)Nc1ccc(S(=O)(=O)N2CCOCC2)cc1 (configuration not stated) | 3%
CCOC(=O)c1cnc2c(CC)cccc2c1NCCN1CCOCC1 | 3%
O=C(OCC(O)C(O)COC(=O)c1ccccc1)c1ccccc1 (configuration not stated) | -6%
CC1CCN(C(=O)c2ccc3ccccc3c2)CC1 | -10%
CC(=O)N1CC2(NC(=O)c3ccccc3N2)c2ccccc21 (configuration not stated) | 2%
CCOc1cccc(OCCCNCCCOC)c1 | -2%
Cc1ccc(-n2nc3ccc(NC(=O)c4ccc5c(c4)OCO5)cc3n2)cc1 | 6%
CCCc1nnc(SCC(=O)Nc2ccc(NC(C)=O)cc2)n1-n1cccc1 | -3%
O=[N+]([O-])c1ccc(S(=O)(=O)NN=Cc2ccc3c(c2)OCO3)cc1 | -12%
O=C(NCC(=O)N1CCN(S(=O)(=O)/C=C/c2ccccc2)CC1)c1ccccc1F | -2%
c1ccc(N2CCN(C3CC4CCC3C4)CC2)cc1 (configuration not stated) | 16%

Source: PubChem
